# KCNQ2 inh: KCNQ2 potassium channel inhibitors, primary screen, cell-based, CHO-K1, FluxOR thallium flux, B-score (AID 2156); Potassium voltage-gated channel subfamily KQT member 2 (Rattus norvegicus), O88943; 20 min; stronger effect = lower value; only compounds with negative scores are shown here; some inactives read as strong as hits; B-score at 10 µM; 310,000 compounds, 1.1% hits;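 active means fluorescence ratio B-score at most minus 3 library SDs, with starting brightness B-score within 2 library SDs, cut at about -5.5 in these data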
# KCNQ2 inh baseline: recorded beside KCNQ2 inh, whose call it bears; B-score; measured here: initial fluorescence intensity artifact check;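 brightness before thallium and not channel activity; 0 = typical well and far values either way flag optical interference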
# Starred values were filed as active, the others as inactive; i = inactive; & = joins results of further samples.
# Second line of a record – KCNQ2 inh baseline	KCNQ2 inh
- CCN(CC)CCNC(=O)c1cc(Cl)c(N)cc1OC
    0.85	i
- CN1CCN(CCC(=O)N2c3ccccc3Sc3ccc(C(F)(F)F)cc32)CC1
    -0.71	i
- CC1COc2c(N3CCN(C)CC3)c(F)cc3c(=O)c(C(=O)O)cn1c23 (stereo unspecified)
    -0.09	i
- OC(C#CCN1CCCC1)(c1ccccc1)c1ccccc1
    0.08	i
- NC(=O)c1cn(Cc2c(F)cccc2F)nn1
    0.04	i
- C=CC1=C(C(=O)O)N2C(=O)[C@@H](NC(=O)/C(=N\O)c3csc(N)n3)[C@H]2SC1 (stereo in doubt)
    0.33	i
- O=C(CCN1CCC(c2ccccc2)C1)c1ccc2c(c1)OCCO2 (stereo unspecified)
    -0.19*	-6.2*
- C1CCC(C(CC2CCCCN2)C2CCCCC2)CC1 (stereo unspecified)
    -0.17	i
- c1ccc(CC2=NCCN2)cc1
    -0.92	i
- O=S(=O)(c1cccc2cnccc12)N1CCCNCC1
    1.1	i
- c1ccc(CN(CC2=NCCN2)c2ccccc2)cc1
    0.6&0.11	i
- CC[N+](C)(CC)CCOC(=O)C(O)(c1ccccc1)C1CCCCC1 (stereo unspecified)
    0.35	i
- Oc1ccc(/C=C/c2cc(O)cc(O)c2)cc1
    -2.4	i
- CCOc1ccc(C(=O)OCCN(CC)CC)cc1
    -0.13	i
- CCCn1cnc2c1c(=O)n(CCCCC(C)=O)c(=O)n2C
    -0.28	i
- CCC(C)n1ncn(-c2ccc(N3CCN(c4ccc(OCC5COC(Cn6cncn6)(c6ccc(Cl)cc6Cl)O5)cc4)CC3)cc2)c1=O (stereo unspecified)
    -0.49	i

# Two of the compounds above, with bars between the fields:
SMILES | KCNQ2 inh baseline | KCNQ2 inh
c1ccc(CN(CC2=NCCN2)c2ccccc2)cc1 | 0.6&0.11 | i
CC[N+](C)(CC)CCOC(=O)C(O)(c1ccccc1)C1CCCCC1 (stereo unspecified) | 0.35 | i

# Grouped by structure: those above with a halogen
# Second line of a record – KCNQ2 inh baseline	KCNQ2 inh
- CCN(CC)CCNC(=O)c1cc(Cl)c(N)cc1OC
    0.85	i
- CN1CCN(CCC(=O)N2c3ccccc3Sc3ccc(C(F)(F)F)cc32)CC1
    -0.71	i
- CC1COc2c(N3CCN(C)CC3)c(F)cc3c(=O)c(C(=O)O)cn1c23 (stereo unspecified)
    -0.09	i
- NC(=O)c1cn(Cc2c(F)cccc2F)nn1
    0.04	i
- CCC(C)n1ncn(-c2ccc(N3CCN(c4ccc(OCC5COC(Cn6cncn6)(c6ccc(Cl)cc6Cl)O5)cc4)CC3)cc2)c1=O (stereo unspecified)
    -0.49	i

# Assay outcomes from PubChem.

# This is a subset; the hit share may differ from the screen's.
